Source: PubChem
Vaccinia Venus – inhibitors of vaccinia virus (Venus reporter); Potency, µM (series often up to 36.5 µM), for inactives: top-dose activity change, negative = inhibition, actives largely listed as inhibitors; Vaccinia virus Venus reporter expression, fluorescence; hit rate 0.46% among 330,000; active means well fitted inhibition curve with a large enough effect; inconclusive means small, poorly fitted or top-dose-only effect; inactive means no such curve, though single readings can be large or run the other way; tested in A549 cells; further: nearly all actives have a fitted effect of over 30% in size; inactives centre near -10
Vaccinia mCherry – vaccinia inhibition (mCherry reporter); Vaccinia virus mCherry reporter infection, fluorescence; about a quarter of the inactives have no number; Potency, µM (doses to about 36.5 µM), for the others: at the top dose activity change, negative = inhibition, usual class: inhibitors; hit rate 0.63% among 310,000; active = well fitted inhibition curve with a large enough effect; inconclusive = small, poorly fitted or top-dose-only effect; inactive = no such curve, though single readings can be large or run the other way; tested in A549 cells; further: nearly all actives have a fitted effect of over 35% in size; inactives centre near -10
Starred values were filed as active, the others as inactive; i = inactive; ? = inconclusive; nt = not tested or not shown; & = joins results of further samples; [ ] = dose if it differs, or a comment. On the % scale 0 is the no-effect control and ±100 the full control effect; potency means the concentration at half of the fitted maximal effect.

SMILES	Vaccinia Venus	Vaccinia mCherry
Cc1cc(C(=O)NNC(=O)c2ccc(Cl)c(S(N)(=O)=O)c2)c(C)o1	-2%	i
COc1ccc(C(C)NC(=O)c2ccoc2C)cc1OC (stereo unspecified)	-10%	i
CC(=O)N1CCOc2ccc(S(=O)(=O)NCc3ccc(C)cc3)cc21	-4%[7.34 µM]	-19%[7.34 µM]
COc1cccc(NC(=O)CSc2nnc(CNC(=O)c3ccccc3F)o2)c1	-7%	-3%
O=C(NCCSc1ccccn1)c1ccc(Cl)cc1	-15%	-14%
COC(=O)NNC(=O)c1ccc(C(C)(C)C)cc1	-8%	-16%
Cc1[nH]c2ccccc2c1SCc1ccccc1	-25%	-1%
Cn1c(N)c(C(=O)COC(=O)C2=NNC(=O)CC2)c(=O)n(C)c1=O	-3%	i
Cc1nc(N2CCN(C)CC2)c2cc(-c3ccccc3)sc2n1	-18%	i
O=C(CN(Cc1ccccc1)C(=O)CNS(=O)(=O)c1ccccc1)NCC1CCCO1 (stereo unspecified)	2%	-13%
CCCc1cc(=O)[nH]c(SCC(=O)Nc2ccc(N3CCCCC3)cc2)n1	-8%	?
Nc1nc2nc(-c3ccccc3)cc(=O)n2[nH]1	-7%&-10%	0%&-13%
COc1ccc2sc(NC(=O)NC(=O)c3c(Cl)cccc3Cl)nc2c1	-29%	-29%
O=C(NCCc1ccccc1)c1cnn(-c2ccc(F)cc2)c1-n1cccc1	-7%	-6%
COC(=O)C1=C(C)N(CCCC(=O)O)C(=O)NC1c1ccccc1OS(=O)(=O)c1ccccc1[N+](=O)[O-] (stereo unspecified)	-14%	i
COc1ccc(C(=O)C2CCCN(C(=O)Cn3ccc(C)n3)C2)cc1OC (stereo unspecified)	-3%	i
CSCCCNC(=S)N1CCN(c2ccc(C(C)=O)cc2)CC1	1%	11%
COC(=O)C1=C(C)NC(C)=C(C(=O)OC)C1c1ccc(OC(=O)c2ccco2)cc1	-17%	nt
O=C(NCc1ccco1)c1sc2ccccc2c1Cl	-29%	nt
CC1CCCC(C)N1/N=C/c1c[nH]c2ccc(Br)cc12 (stereo unspecified)	?	?
Cc1cc(CC(C)C)n(-c2nc3ccccc3c(=O)n2OCC(=O)N(C)C)n1	-7%	nt
Cc1ccc(S(=O)(=O)Nc2c(O)c3ccccc3oc2=O)cc1	-7%	-9%
CC(C)(C)C(=O)Nc1cc(S(=O)(=O)N2CCCCC2)ccc1N1CCCCC1	-11%	-1%
COCOCCn1cc(CN2CCS(=O)(=O)N(Cc3ccc(-c4ccc(OC)c(OC)c4)cc3)C(CC(C)C)C2=O)nn1 (stereo unspecified)	-22%	i
CC1(C(=O)Nc2ccc3c(c2)OCCO3)CCN1C(=O)Cc1ccc(-c2ccccc2)cc1 (stereo unspecified)	-10%	25%

Part of the list above, field by field:
COc1cccc(NC(=O)CSc2nnc(CNC(=O)c3ccccc3F)o2)c1
- Vaccinia Venus: -7%
- Vaccinia mCherry: -3%
O=C(NCc1ccco1)c1sc2ccccc2c1Cl
- Vaccinia Venus: -29%
- Vaccinia mCherry: nt
Cc1[nH]c2ccccc2c1SCc1ccccc1
- Vaccinia Venus: -25%
- Vaccinia mCherry: -1%

Carrying on.
SMILES	Vaccinia Venus	Vaccinia mCherry
O=C1CC(=O)N(c2ccccc2)C(=O)N1c1ccccc1	1%	-17%
CS(=O)(=O)O/N=C1\CCCCC1c1ccc([N+](=O)[O-])cc1[N+](=O)[O-] (stereo unspecified)	-13%	i
CNC(=O)Cn1nc(-c2ccc(Cl)cc2)c2ccccc2c1=O	-4%&-9%	-2%
C=CCOc1ccc(/C=C2\SC(=S)N(CCC(=O)O)C2=O)cc1	5%	-17%
COc1ccc(CCn2nnnc2C(c2ccc(Cl)cc2)N2CCN(C)CC2)cc1OC (stereo unspecified)	-2%	-13%
Cc1noc(C)c1CC(=O)N1CCCC(N2CCN(c3ccccc3F)CC2)C1 (stereo unspecified)	5%	-8%
O=C(O)CN1C(c2ccccc2)=Nc2ccc(Br)cc2C1c1ccccc1 (stereo unspecified)	-3%	i
CC(=O)NCCc1nc2cc(NC(=O)c3ccc([N+](=O)[O-])cc3)ccc2n1C	-20%	-6%
CCc1[nH]c(C)c(C(C)=O)c1C	-9%	-18%
Cc1ccc2nc(SCC(=O)Nc3ccc(C#N)cc3)[nH]c2c1	6%	1%
Cc1ccc(CC(=O)NCCS(=O)c2ccc(Cl)cc2)cc1 (stereo unspecified)	-20%	nt
Cc1ccc(NC(=S)NCc2ccc(Cl)cc2)c(C)c1	-23%	-29%
CCC(CC)Nc1ccc(C(CC(N)=O)NC(=O)Cc2cccc3ccccc23)cc1[N+](=O)[O-] (stereo unspecified)	-9%	i
C[C@H](NC(=O)c1[nH]cnc1C(=O)Nc1ccccc1F)c1ccccc1	?	-19%
OCc1nnn(-c2ccccc2)c1CO	-6%	i
Cc1cccc(OCC(=O)N2CCN(C(=O)Cc3ccccc3)CC2)c1	-24%	nt
COc1cccc(CN(C(=O)/C=C/c2ccc(Cl)cc2)C2CCS(=O)(=O)C2)c1 (stereo unspecified)	-4%	-9%
CCCCn1c(N)c(N(CCOC)C(=O)c2ccc(S(=O)(=O)N3CCCCCC3)cc2)c(=O)[nH]c1=O	-10%	-17%
O=C1Nc2ccc(C(=O)O)c(O)c2C1=O	1%	-11%
COc1ccc2[nH]cc(CCN(C)C)c2c1	-9%&1%	-16%
CCN(CC)C(=O)c1sc2c(c1C)c(=O)n(-c1ccc(C)c(C)c1)c(=O)n2Cc1cccc(Cl)c1	-20%	?
CCOc1ccc(C(=O)Nc2ccc3nc(SCC(=O)N4CCc5ccccc54)sc3c2)cc1	-29%	-5%
CC(=O)c1c(N)c(C#N)c(C)n1-c1ccc(Br)cc1	-12%	nt
CN(C(=O)c1coc(=O)c2ccccc12)c1ccc(Br)cc1	-6%	i
CC1CCCCN1C(=O)C12CCC(C)(C(=O)C1)C2(C)C (stereo unspecified)	-5%	-7%

Single records (already shown). Values in the order: Vaccinia Venus, Vaccinia mCherry
COc1ccc(C(=O)C2CCCN(C(=O)Cn3ccc(C)n3)C2)cc1OC (stereo unspecified) across the screens: -3%, i
C[C@H](NC(=O)c1[nH]cnc1C(=O)Nc1ccccc1F)c1ccccc1 across the screens: ?, -19%
Cc1noc(C)c1CC(=O)N1CCCC(N2CCN(c3ccccc3F)CC2)C1 (stereo unspecified) across the screens: 5%, -8%

The list continues:
SMILES	Vaccinia Venus	Vaccinia mCherry
O=C(NCC(c1ccco1)N1CCCC1)c1cccc(S(=O)(=O)N2CCCCC2)c1 (stereo unspecified)	-24%	?
Cc1ccc(Nc2c(-c3c[nH]c4ccccc34)nc3cc(C)ccn23)cc1	-22%	-32%
O=C(N/N=C/c1ccc(N2CCOCC2)cc1)c1ccccc1NS(=O)(=O)c1cccs1	-12%	-11%
O=C(NCc1ccco1)Nc1nnc([C@H]2C[C@H](O)[C@@H](CO)O2)s1	-2%	23%
O=C(N/N=C/c1ccc(Br)s1)c1ccc([N+](=O)[O-])cc1	-20%	-22%
Cn1cccc1CNC1CCCCC1	-5%	i
O=C(CSc1nc2ncc(Br)cc2[nH]1)c1ccc([N+](=O)[O-])cc1	-14%	-2%
NC(=O)Cn1nc(C(F)(F)F)c2c1CCCC2	-14%	-4%
CCCCC1=CC2=CC(=O)C(C)(OC(=O)CC)C(=O)C2=CN1Cc1ccccc1 (stereo unspecified)	-12%	i
CC(C)C(C)(C#N)NC(=O)CSc1nc2scc(-c3ccccc3)c2c(=O)[nH]1 (stereo unspecified)	-15%	-4%
CC(C)(C)CN1C(N)=NC[C@@H]1Cc1ccc(O)cc1	-8%	?
CN(C)S(=O)(=O)c1ccc(NC(=S)NC(=O)Cc2ccccc2)cc1	-2%	-5%
Cc1cc(C)cc(C(O)c2ncc(-c3ccccc3F)[nH]2)c1 (stereo unspecified)	-19%	?
CCOC(=O)c1n[nH]c(=O)c2ccccc12	-14%	-4%
O=C(N/C(=C/c1ccc([N+](=O)[O-])cc1)C(=O)N1CCOCC1)c1ccco1	-10%	-7%
COc1ccc(CCNC(=O)CCS(=O)(=O)c2ccc3c(c2)NC(=O)CS3)cc1OC	4%[7.34 µM]	2%[7.34 µM]
COC(=O)N/N=C/c1cn(CCOc2ccccc2)c2ccccc12	-15%	i
CCOC(=O)/C=C/c1ccccc1S(=O)(=O)NC(C)(C)C	-3%&-11%	-19%
Nc1[nH]c(C(=O)c2ccccc2)c(-c2ccncc2)c1C(=O)NCCc1c[nH]c2ccccc12	-20%	-11%
Clc1ccccc1CNCCCSc1nnnn1-c1ccccc1	-11%	-8%
O=C(CSc1nnc(CNC(=O)c2cccc(C(F)(F)F)c2)o1)NC1CCCC1	-14%	i
COCCOC(=O)C1=C(C)N=C2SCCC(=O)N2C1/C=C/c1ccccc1 (stereo unspecified)	-16%	-23%
Cc1cc2nc(C)c3c(n2n1)CCC3	-9%	-6%
O=S(=O)(c1ccc(NC(=S)NC2CCCC2)cc1)N1CCCC1	-12%	i
COc1cccc(NC(=O)CN(C)C(=O)CC2CC3CCC2C3)c1 (stereo unspecified)	-6%	i

As entered above:
`COc1cccc(NC(=O)CSc2nnc(CNC(=O)c3ccccc3F)o2)c1` | Vaccinia Venus = -7%
`O=C(O)CN1C(c2ccccc2)=Nc2ccc(Br)cc2C1c1ccccc1` (stereo unspecified) | Vaccinia Venus = -3%

5 entries from above in a different format:
Fields – Vaccinia Venus, Vaccinia mCherry
- Clc1ccccc1CNCCCSc1nnnn1-c1ccccc1
→ -11%, -8%
- O=C(CSc1nnc(CNC(=O)c2cccc(C(F)(F)F)c2)o1)NC1CCCC1
→ -14%, i
- COCCOC(=O)C1=C(C)N=C2SCCC(=O)N2C1/C=C/c1ccccc1 (stereo unspecified)
→ -16%, -23%
- Cc1cc2nc(C)c3c(n2n1)CCC3
→ -9%, -6%
- O=S(=O)(c1ccc(NC(=S)NC2CCCC2)cc1)N1CCCC1
→ -12%, i

(list continues)
SMILES	Vaccinia Venus	Vaccinia mCherry
CCOC(=O)N1CCN(CC(O)c2ccc3cc[nH]c3c2)CC1 (stereo unspecified)	-7%	?
CCCN1Cc2cccc(C(=O)Nc3ccc4c(c3)OCCO4)c2C1=O	-1%	-6%
C/C(=N/Nc1nc(C)cc(C)n1)c1ccc(Br)cc1	-13%	i
COc1ccc2oc(=Nc3ccccc3)c(-c3nc4ccccc4[nH]3)cc2c1	-4%	i
CC1CCCCC1NC(=O)CSc1nnc(CN2CCOCC2)n1C (stereo unspecified)	0%	i
COc1ccc(OC)c(C(=O)NC2CCCc3c2cnn3-c2cc(C)cc(C)c2)c1 (stereo unspecified)	-11%	i
C(=Nc1cnc2ccccc2c1)c1ccnc2ccccc12	5%	-10%
COC(=O)c1c(C(=O)OC)c2cc(C)ccn2c1Cl	-11%	nt
CCOC(=O)C1CCN(C(=O)Cn2ncc3c([nH]c4ccccc43)c2=O)CC1	-4%&0%	-14%&7%
CCCOc1ccccc1C1CC(=O)Nc2cc3c(cc21)OCCO3 (stereo unspecified)	?	?
COc1ccc2cc(S(=O)(=O)N3CCCCC3)ccc2c1S(=O)(=O)N1CCCCC1	-15%	i
CC(O)(COc1ccccc1)c1ccc2c(c1)CN(C/C=C/c1ccco1)CCO2 (stereo unspecified)	3%	-5%
CCCCCSc1nnc(-c2ccccc2N)c(=O)[nH]1	-13%	-5%
CCOc1ccc(NC(=O)CCN2CCN(c3ccccc3OC)CC2)cc1	-13%	nt
O=c1c2c(nc3n1CCCCC3)sc1c(O)cccc12	?	?
O=c1c(-c2ccc(Br)cc2)[n+]([O-])c2ccccc2n1OCc1ccccn1	-7%	3%
CCN(CC)CCCN1C=C2C(=O)C(C)(OC(=O)CCC(=O)OC)C(=O)C(Br)=C2C=C1c1ccc(OC)cc1 (stereo unspecified)	-4%	1%
C/C(CC(C)C)=N\Oc1nc(C)cc(C)n1	14%	12%
C=C(C)[C@H]1CC=C(C)C(=O)C1	-7%	i
Cc1nnc(SCC(=O)N2CCCC2)n(N)c1=O	1%	6%
CNc1nc(N(C)C)nc(N(C)C)n1	-5%	i
COc1cc(C2c3c(oc4ccc(F)cc4c3=O)C(=O)N2Cc2ccc3c(c2)OCO3)ccc1O (stereo unspecified)	-8%	-11%
CCOC(=O)c1sc(-c2cccs2)nc1C	-11%	i
N#Cc1ccc(NC2c3ccccc3CC2O)cc1 (stereo unspecified)	-21%	?
Cc1ccc2cccnc2c1N	-1%	-4%
Next structures
SMILES	Vaccinia Venus	Vaccinia mCherry
CNS(=O)(=O)c1cccc(C(=O)OCC(=O)N(Cc2ccccc2)C(C)(C)C)c1	-7%	?
C=CCn1c2ccccc2c2nnc(SCN3C(=O)c4ccccc4C3=O)nc21	-25%	nt
Cc1oc(C)c2c(=O)ccc3c(c12)OC(N)=C(C#N)C3c1ccccc1Cl (stereo unspecified)	50%[activator]	8%
COc1ccc(CN2CCc3ccc(NC(=O)CCc4ccccc4OC)cc3C2)c(O)c1	-30%	?
CN(C)CCCN1C(=O)C(=O)/C(=C(/O)c2ccncc2)C1c1cccnc1 (stereo unspecified)	0%	-11%
COc1cccc(NC(=O)c2ccc3nc(C)c(N(C)Cc4ccc(NC(C)=O)cc4)n3c2)c1	-7%	i
